From PubChem
NPYLR7 ag – agonists of mosquito NPYLR7 receptor, primary screen, cell-based, Aedes aegypti, calcium fluorescence, mosquito biting behavior | Aedes aegypti neuropeptide Y-like receptor 7 (NPYLR7) | HEK293T NPYLR7/Galpha15, GCaMP6s calcium fluorescence | activation, % at 10 µM | 270,000 tested, 0.15% active | AID 1259423, 2018; in the data active = activation above about 40%;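 note: 0% = vehicle and 100% = reference agonist at the receptor; some compounds past the cut are filed as inactive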
NPYLR7 ag max-min – recorded beside NPYLR7 ag, whose call it bears; activation, %; measured here: Max-Min RFU normalised activation; some inactives read as strong as hits;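 span of the calcium signal over five minutes; 0% = vehicle and 100% = native peptide agonist; compound fluorescence can raise it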
Starred values were filed as active, the others as inactive. The list is partial (hit frequency here may not be typical).

Below each compound – NPYLR7 ag	NPYLR7 ag max-min
> Cc1nn(C2CCCCC2)c2c1C(c1ccc3c(c1)nnn3C)CC(=O)N2 (stereo not drawn)
→ 24.0	16.9
> Cc1ccc(-n2nc3c(c2NC(=O)c2cccc4ccccc24)CS(=O)(=O)C3)cc1
→ -4.1	-3.8
> Cc1cc(C)c(C(O)c2ncc(-c3cccc4ccccc34)[nH]2)c(C)c1 (stereo not drawn)
→ 0.4	-3.2
> COc1ccc(NC(=O)C2(C)CCN2C(=O)CC2CCCC2)cc1OC (stereo not drawn)
→ 5.9	3.3
> COc1ccccc1-c1nc(C(=O)NNC(=O)C2CCCC2)cs1
→ 2.9	1.0
> N#CC1C(=O)NC(=S)C(C#N)C12CCCCC2 (stereo not drawn)
→ -2.8	-3.3
> COc1ccc(OC)c(CNCc2c(C)nc3ccccn23)c1
→ 2.1	0.9
> N#Cc1sc2nc(C3CC3)cc(-c3ccccc3)c2c1N
→ 1.6	-0.6
> O=C1CC2(CCCC2)C(=O)N1Cc1nnc(-c2ccc(Br)cc2)o1
→ 3.7	-0.2
> CCCSc1ncccc1C(=O)Nc1cc(C(C)(C)C)nn1-c1ccc(Br)cc1
→ 0.6	1.0
> COc1cc(OC)cc(-c2nnc(SCC(=O)N3CCOCC3)n2C2CCCCC2)c1
→ -4.0	1.6
> CCc1nc2c(OCC3CCCCC3)cccn2c1N(C)C(=O)c1ccc(OC)cc1
→ 8.0	-2.1
> Cc1ccc(NC(=O)c2cc(-c3cccn3C)nn2-c2cccc([N+](=O)[O-])c2)cc1
→ 4.9	1.1
> Cc1ccc2oc(-c3ccc(NC(=O)c4ccc(C)c([N+](=O)[O-])c4)cc3)nc2c1
→ 0.5	-6.9
> CCCn1cc(SCC(N)=O)c2ccccc21
→ -0.3	-3.9
> COc1cc2ncnc(Nc3cccc(Br)c3)c2cc1OC
→ -7.2	-12.1
> Cc1cccn2c(=O)cc(CN3CCCC3c3cccs3)nc12 (stereo not drawn)
→ 3.5	14.0
> Cc1[nH]nc(C(=O)N2CCCC2Cc2cccc(F)c2)c1Br (stereo not drawn)
→ 8.3	6.5
> COc1c2c(c(C(=O)/C=C/C(C)=C/c3ccccc3)c3c1OCO3)CCN(C)C2
→ 3.3	1.5
> CN(Cc1ccc(F)cc1)C(=O)c1cnn(-c2ccc(=O)[nH]n2)c1C(F)(F)F
→ 0.6	-1.5
> CC(CN(C)C(=O)c1c(O)cccc1O)N1CCOCC1 (stereo not drawn)
→ -5.0	-8.9
> N#CC1(c2ccccc2)CCC2(CC1)Nc1ccccc1C(=O)N2CCCN1CCOCC1 (stereo not drawn)
→ -0.1	-3.8
> Cc1ccccc1Oc1cc(N2CCN(C(=O)c3ccc(Cl)cc3)C(C)C2)ncn1 (stereo not drawn)
→ -1.2	4.5
> Cc1ccc(CN(Cc2ccc(F)cc2)C(=O)CN(Cc2ccco2)C(=O)c2ccc(Cl)cc2)s1
→ -10.9	-16.2
> O=C(Nc1cccc(-c2ncn[nH]2)c1)C1CCN(c2cnccn2)CC1
→ 5.0	5.4
> CCn1nnc2c(N3CCN(c4ccc(OC)cc4)CC3)ncnc21
→ 11.8	7.4
> CCOc1ccc(-c2cc(C(=O)NCCCc3ccccc3)c3ccccc3n2)cc1
→ 6.9	7.4
> O=C(CSc1n[nH]c(C2CC2)n1)N1CCN(Cc2ccc(Cl)s2)CC1
→ 4.8	3.6
> O=C(c1cccc(C(F)(F)F)c1)C1CCCN(C(=O)c2ccoc2)C1 (stereo not drawn)
→ 2.7	0.0
> CSc1ccc(C(=O)NCC(=O)N[C@H](C)C(C)(C)C)cc1
→ 19.7	2.5
> Cc1nc(C(=O)N2CCC3(CC2)CNC(=O)O3)cs1
→ -0.9	-7.9
> CC12CC(NC(=O)N1c1ccc(Cl)cc1)c1cc(Cl)ccc1O2 (stereo not drawn)
→ -0.1	0.7
> Nc1nc(SCC(=O)N2N=C(c3ccco3)CC2c2cccs2)n[nH]1 (stereo not drawn)
→ 4.0	11.3
> CCC(C(=O)N1CCN(c2cc(Oc3cc(C)ccc3Cl)ncn2)CC1)c1ccccc1 (stereo not drawn)
→ 13.8	16.5
> Cc1ccc(S(=O)(=O)Nc2cc(C)c([N+](=O)[O-])cc2C)cc1
→ 0.5	-1.1
> CSc1nccn1-c1cccc(C(=O)NCc2nnc(C)n2C)c1
→ 1.3	-1.5
> O=C(NCc1cccc(Cl)c1Cl)c1cncn1-c1ccc(-c2cc(C(F)(F)F)cc(C(F)(F)F)c2)cc1
→ 13.0	14.5
> COc1cccc(NC(=O)c2cccc(CN(C)C(C)C)c2)c1
→ 7.8	4.9
> CCCCn1c(C(=O)Nc2ccc(OC)cc2)cc2c(=O)n(C)c(=O)n(C)c21
→ -3.2	-5.5
> O=C(c1ccc(Cl)cc1)N(Cc1nccn1Cc1ccc(F)cc1)CC1CCCO1 (stereo not drawn)
→ 3.6	11.0
> Cc1c(C(=O)NCCCN2CCOCC2)cc(-c2ccc(Cl)cc2)n1-c1cccc(F)c1
→ -4.4	1.4
> CCCc1noc(C(C)Sc2nnc(NCC(C)C)s2)n1 (stereo not drawn)
→ 5.8	2.7
> COc1ccc(CN2CCC3(CC2)c2ccccc2[C@@H](NC(=O)c2ccco2)[C@@H]3OC)cc1C
→ 27.2	22.6
> OC1CCCN(Cc2cn(Cc3ccccc3)nc2-c2ccc3c(c2)OCO3)C1 (stereo not drawn)
→ 8.0	1.1
> COc1cc(CN(C)C(=O)c2c(C)noc2-c2ccco2)cc(OC)c1OC
→ -2.4	10.7
> CC(C)c1ccc(NC2CCCN(C(=O)c3cccc(C#CC(C)(C)O)c3)C2)cc1 (stereo not drawn)
→ -3.9	-6.7
> CCOC(=O)C1(Cc2cccc(Cl)c2)CCCN(Cc2cccnc2)C1 (stereo not drawn)
→ 9.3	6.8
> C=C(OC(=O)c1ccccc1/C(C)=N/O)c1ccccc1C(=O)O
→ 2.2	7.7
> CC(C)NC(=O)COC(=O)C1CCCN1C(=O)C(C)(C)C (stereo not drawn)
→ 4.1	3.8
> COc1ccc(CN2C3CCC2CC(NS(=O)(=O)c2ccc4ccccc4c2)C3)c(OC)c1 (stereo not drawn)
→ 2.5	5.6
> C=CCN(CC(=O)N1CCc2sccc2C1c1ccc(C)cc1)C(=O)c1ccco1 (stereo not drawn)
→ 9.0	9.6
> Cc1cc(C(=O)N2CCC3(CCCc4ccccc43)C2)nn1-c1ccccc1 (stereo not drawn)
→ 5.6	7.3
> Cc1n[nH]c(C)c1S(=O)(=O)NCc1cnn(-c2ccccc2)c1
→ 2.3	1.8
> CC(Nc1oc(-c2ccc(COc3ccccc3)o2)nc1C#N)c1ccccc1 (stereo not drawn)
→ -0.2	22.3
> CC1CCCCC12NC(=O)N(CC(=O)OCC#N)C2=O (stereo not drawn)
→ 6.7	5.6
> CCCc1nnc(C(=O)N(C)Cc2cccnc2)o1
→ -20.2	-21.2
> COc1ccc(NC(=O)N2CCSC2c2ccc(C(F)(F)F)cc2)cc1 (stereo not drawn)
→ 15.5	29.1
> CCc1nn2c(=O)cc(CSc3nc4sc5c(c4c(=O)n3C)CCCC5)nc2s1
→ 3.5	2.0
> CCCCN(CC(=O)N(CCc1ccc(OC)c(OC)c1)Cc1cccs1)C(=O)COc1ccccc1
→ 2.3	-1.1
> COc1ccccc1C1=NN(C(=O)CN2CCOCC2)C(c2ccccc2OC)C1 (stereo not drawn)
→ 6.1	14.1

Later entries:
Below each compound – NPYLR7 ag	NPYLR7 ag max-min
> Cc1nnc(SCc2cccnc2)c2c1cnn2-c1ccccc1
→ -17.1	-25.8
> CC1(C(=O)N2Cc3ccccc3C2)CCN1C(=O)C1(c2ccc(Cl)cc2)CC1 (stereo not drawn)
→ -6.0	-13.0
> COCCN(CC(=O)N(CCc1c[nH]c2ccccc12)Cc1ccccc1)S(=O)(=O)c1cc(Cl)ccc1Cl
→ 37.3	28.3
> Cc1cccnc1C(NC(=O)C1CCN(CCOc2ccccc2)CC1)c1ccccc1 (stereo not drawn)
→ 11.7	-0.1
> OC1C[C@H]2CC[C@@H](C1)N2c1ncnc2[nH]ccc12 (stereo partly drawn)
→ 16.9	6.4
> O=c1c2ccccc2ncn1CCc1n[nH]c(CCc2ccccc2)n1
→ 3.7	3.2
> N#CC1C(=N)C(C#N)(C#N)[C@@H](c2ccc(F)cc2)[C@@H]2CCCC=C12 (stereo partly drawn)
→ 12.7	6.3
> CC(=O)c1cc2c(cc1NC(=O)CCl)OCO2
→ -1.1	-1.5
> COc1ccc(C(CCN(C)C)OC(=O)Nc2ccc(C(=O)N[C@H]3CCOC3=O)cc2)cc1 (stereo partly drawn)
→ 1.1	5.4
> CSc1ccc(C2C(C#N)C(=N)SC(=N)C2C#N)cc1 (stereo not drawn)
→ -0.3	-0.8
> COc1ccc(-c2cnoc2-c2ccc(O)cc2O)cc1OC
→ 1.1	-4.0
> CCCOC(=NC1CCCCC1)NC(=O)c1cccc(OC)c1
→ 12.3	15.2
> COc1ccc(C(=O)NCCc2nnc3ccc(SCC(=O)N4CCOCC4)nn23)cc1
→ 5.4	-5.8
> CC(=O)c1ccc(N2CCN(Cc3nc(-c4ccc(Cl)cc4)oc3C)CC2)cc1
→ 5.3	-0.9
> Cc1ccc(NC(=O)C(c2ccccc2)N2CCC(NS(C)(=O)=O)CC2)cc1 (stereo not drawn)
→ 0.5	0.2
> CCC(C)N(Cc1ccc(N(CC)CC)cc1OS(=O)(=O)c1ccc(OC)cc1)C(=O)NC(C)C (stereo not drawn)
→ 17.1	24.5
> Cn1ccnc1NC(=O)c1ccc(CN2CCC(Oc3ncccn3)CC2)cc1
→ 2.4	0.1
> CCCS(=O)(=O)N1CCN(c2nc(-c3ccccc3)nc(CC)c2Cc2ccccc2F)CC1
→ 5.1	14.5
> CC1CC(=O)CC(=O)C1C(=O)OC(C)(C)C (stereo not drawn)
→ -6.8	-10.7
> CNC(=O)c1ccccc1NC(=O)Cc1ccc(C)c(C)c1
→ 1.8	0.4
> Cc1ccc(-c2cnn3c(N4CCN(c5cccc(C)n5)CC4)cc(C)nc23)cc1
→ -1.4	-4.0
> CCCOc1ccc(S(=O)(=O)NCc2ccco2)cc1
→ 0.6	0.2
> CC(=O)Nc1cnc(-c2ccc(N)cc2)cn1
→ 2.7	0.9
> COc1ccc(C(=O)NC2CCC(NC(=O)[C@H]3CCCN3C(=O)COc3ccc(Cl)cc3)CC2)cc1 (stereo partly drawn)
→ 2.8	14.8
> COc1ccc(-c2nc(CN3CCCC3c3nonc3C)c(C)o2)c(OC)c1 (stereo not drawn)
→ 18.9	6.3
> Cc1cccc(NCC(=O)NNC(=O)c2ccccc2)c1C
→ 5.9	3.9
> O=C(Nc1ccc(S(=O)(=O)C(F)F)cc1)C1CCOCC1
→ 2.1	-0.8
> Cc1cc(C)cc(NC(=O)c2c(C(=O)Nc3ccc(F)cc3)sc3nc(C)cc(=O)n23)c1
→ 1.5	-5.4
> COc1cc(CC(=O)Nc2ccccn2)ccc1C
→ -0.2	-2.0
> CCOC(=O)N1CCN(C(=O)c2cc3nc(-c4ccc(Cl)cc4)cc(C(F)(F)F)n3n2)CC1
→ -7.1	-12.5
> Cc1cccc(CN2CCN(Cc3ncccc3C(=O)O)C(C)C2=O)c1 (stereo not drawn)
→ 15.9	13.4
> O=c1c2ccccc2c(-c2ccccc2)nn1CC(O)c1cc(F)ccc1F (stereo not drawn)
→ 7.1	5.4
> COCCN(Cc1ccccc1C#N)Cc1cccn1Cc1ccccc1
→ -4.9	14.1
> CC1Cc2ccccc2N1CC(=O)N1CC(=O)Nc2ccccc21 (stereo not drawn)
→ 7.8	0.7
> Cc1ccc(-n2c(-c3ccc(Cl)cc3)n[nH]c2=S)cc1
→ -3.5	-8.0
> Clc1ccccc1CNC1c2ccccc2-c2ccccc21
→ -0.2	-1.1
> COC(=O)c1ccccc1NC(=O)c1cccn(OCc2cccc(C)c2)c1=O
→ 14.9	13.7
> COc1ccccc1/C=C/C=C1\N=C(c2cc(Br)ccc2OC)OC1=O
→ 2.0	3.4
> Cn1ccnc1SCc1cc(=O)c(OC(=O)c2ccc(-c3ccccc3)cc2)co1
→ -3.2	-5.8
> Cc1ccc(C)c(Nc2nc(C)c([N+](=O)[O-])c(Nc3cc(C)ccc3C)n2)c1
→ -8.8	-7.0
> NC(=O)c1ccc(NC(=O)CS(=O)(=O)c2cn(CC(=O)N3CCCC3)c3ccccc23)cc1
→ -5.5	-12.0
> CCS(=O)(=O)Oc1ccc(Cl)cc1CN(CCN(C)C)C(=O)c1ccco1
→ 29.3	31.2
> C(=N/Nc1nc(N2CCOCC2)nc(N2CCOCC2)n1)/c1ccc2c(c1)OCO2
→ 1.7	-5.2
> COc1cc(C2C3=C(CCCC3=O)N=C3CCCC(=O)C32)cc(OC)c1OC (stereo not drawn)
→ 1.5	-0.1
> Cc1nn(C)c(C)c1NC(=O)C(C)Nc1cccc(C(=O)NC2CC2)c1 (stereo not drawn)
→ 0.7	0.1

Filtered by structure, the compounds so far containing a COOH group (two)
Below each compound – NPYLR7 ag	NPYLR7 ag max-min
> C=C(OC(=O)c1ccccc1/C(C)=N/O)c1ccccc1C(=O)O
→ 2.2	7.7
> Cc1cccc(CN2CCN(Cc3ncccc3C(=O)O)C(C)C2=O)c1 (stereo not drawn)
→ 15.9	13.4

Other records.
Below each compound – NPYLR7 ag	NPYLR7 ag max-min
> CC1=C(C(=O)OCCc2ccccc2)C(c2ccc([N+](=O)[O-])cc2)NC(=O)N1 (stereo not drawn)
→ 9.3	8.7
> CCOC(=O)N1CCN(C(c2ccncc2)c2c(O)cc(C)n(Cc3cccnc3)c2=O)CC1 (stereo not drawn)
→ 8.7	0.0
> O=C(CCc1ccc2c(c1)OCCO2)NC1CCCCC1
→ -0.1	1.3
> COc1cccc(N2CC(C(=O)Nc3ccc(F)cc3)CC2=O)c1 (stereo not drawn)
→ -0.7	-0.7
> C=c1occc1=C1NN=C(SCC(=O)c2cc(C)n(CC)c2C)O1
→ 14.5	13.3
> C=CCSSSCC=C
→ 5.7	-2.7
> CC1CC(N(C)CC2CCN(CCO)CC2)C(=O)O1 (stereo not drawn)
→ 2.2	1.0
